Cruzain inh noDet: inhibitors of Trypanosoma cruzi cruzain without detergent; P25779; purified cruzain, Z-FR-AMC fluorescence, no detergent; Potency, µM, without a hit: max response, negative = inhibition, hits mostly inhibitors; 200,000 compounds, 2.3% hits; active = well fitted curve in the direction sought with a large enough effect; inconclusive = small, poorly fitted or top-dose-only effect, or another doubt; inactive = no such curve, though single readings can be large; an effect the other way counts as inactive or inconclusive;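 also: plate controls were enzyme without inhibitor for no effect and buffer without enzyme for full effect; nearly all actives have a fitted effect of over 40% in size; top concentration of the series not given in the record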
Target sequence (P25779 123-467 limits assumed): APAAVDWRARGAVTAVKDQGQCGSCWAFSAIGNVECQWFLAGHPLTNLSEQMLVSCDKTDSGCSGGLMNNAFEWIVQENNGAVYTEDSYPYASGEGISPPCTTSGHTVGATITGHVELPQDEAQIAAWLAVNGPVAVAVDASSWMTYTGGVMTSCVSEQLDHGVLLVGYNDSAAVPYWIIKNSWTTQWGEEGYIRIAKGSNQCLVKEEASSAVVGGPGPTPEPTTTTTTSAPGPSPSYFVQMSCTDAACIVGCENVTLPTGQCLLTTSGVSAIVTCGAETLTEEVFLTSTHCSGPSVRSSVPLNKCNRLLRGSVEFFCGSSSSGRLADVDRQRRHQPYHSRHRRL
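Purified cruzain at 1.5 nM, pre-incubated 15 min with compound at room temperature in 100 mM sodium acetate pH 5.5, 5 mM DTT, 0.00005% Triton X-100. Reaction started with 2 uM Z-FR-AMC; AMC fluorescence increase over 60 s gives rate.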
NS1 inh: influenza NS1 inhibition. 270,000 compounds, 0.4% hits. S. cerevisiae slowed by influenza A NS1, growth recovery by OD600. AID 2326. Potency, µM (highest dose often 46.1 µM), without a hit: at the highest dose activity, positive = more growth; also: actives are rising curves; nearly all actives have a fitted effect of over 50% in size
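Read-out: OD600 growth recovery of NS1-expressing budding yeast. Cells grown overnight at 30C in -URA glucose medium, washed, resuspended and diluted 1:100 in 2% galactose assay medium, pH 6.0. Same strain lacking NS1 served as positive control.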
Lassa entry inh: Lassa virus entry inhibition. 300,000 compounds, 1.2% hits. Potency, µM (titrated, usually from 37.9 µM), without a hit: at the top dose activity change, negative = inhibition, hits mostly inhibitors. Lassa virus pseudotype entry inhibition, cell reporter; control for the full effect not named in the record. AID 540256; active means well fitted inhibition curve with a large enough effect; inconclusive means small, poorly fitted or top-dose-only effect, or effect the other way; inactive means flat fitted curve, though single readings scatter; tested in HEK293 cells; also: % is scaled to controls: 0 for no effect and ±100 for the full control effect; nearly all actives have a fitted effect of over 50% in size; luciferase read-out
RE007 growth inh: less growth of the S. pombe RE007 Vpr strain; S. pombe RE007 Vpr strain, BacTiter-Glo ATP luminescence, 24 h; control for the full effect not named in the record; Potency, µM (titrated, usually from 92.2 µM), without a hit: at the highest dose activity change, negative = less growth; 360,000 compounds, 0.21% hits; AID 651644; active = well fitted falling curve with a large enough effect; inconclusive = small, poorly fitted or top-dose-only effect; inactive = no such curve, though single readings can be large or run the other way;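 also: % is scaled to controls: 0 for no effect and ±100 for the full control effect; nearly all actives have a fitted effect of over 50% in size; the assay follows cell death caused by Vpr and the record does not say whether a fall means rescue or toxicity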
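Fission yeast RE007 carrying one integrated HIV-1 vpr copy, seeded at OD 0.01 in PMG+AL medium with 23 nL pinned compound. Grown 24 h at 30 degrees; viability read by BacTiter-Glo luminescence after 5 min.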
2A StopGo: FMDV 2A StopGo reporter, luciferase signal; human cells with a luciferase reporter of 2A StopGo recoding; control for the full effect not named in the record; Potency, µM (top dose mostly 57.9 µM), inactives show top-dose signal change, negative = less light; 410,000 compounds, 1.2% hits; AID 1159524; active = well fitted falling curve with a large enough effect; inconclusive = small, poorly fitted or top-dose-only effect; inactive = no such curve, though single readings can be large or run the other way; tested in HEK293T cells; also: % is scaled to controls: 0 for no effect and ±100 for the full control effect; nearly all actives have a fitted effect of over 45% in size; luciferase light after 4 h
Marburg entry inh: inhibitors of Marburg virus binding or cell entry | Marburg virus pseudotyped entry inhibition, cell reporter; control for the full effect not named in the record; about a third of the inactives were read at about 46 µM | Potency, µM (series often up to 37.8 µM), without a hit: at the highest dose activity change, negative = inhibition, usual class: inhibitors | 300,000 compounds, 1.8% hits; active = well fitted inhibition curve with a large enough effect; inconclusive = small, poorly fitted or top-dose-only effect, or effect the other way; inactive = flat fitted curve, though single readings scatter; tested in HEK293 cells; about a fifth of its hits are not listed in these tables; also: % is scaled to controls: 0 for no effect and ±100 for the full control effect; luciferase read-out
SARS PLP yeast: blocks SARS-CoV papain-like protease in a yeast assay; S. cerevisiae expressing SARS-CoV PLpro, growth rescue; control for the full effect not named in the record; Potency, µM (highest dose often 32.9 µM), for the others: at the highest dose activity, positive = growth rescue; 330,000 compounds, 0.19% hits; AID 485353; also: 0% is about no effect; nearly all actives have a fitted effect of over 55% in size; growth read by luminescence after 48 h
Cruzain inh Det: cruzain (T. cruzi) inhibition with detergent; P25779; purified cruzain, Z-FR-AMC fluorescence, 0.01% Triton; Potency, µM, without a hit: max response, negative = inhibition, hits mostly inhibitors; 200,000 compounds, 0.43% hits; AID 1478; active = well fitted curve in the direction sought with a large enough effect; inconclusive = small, poorly fitted or top-dose-only effect, or another doubt; inactive = no such curve, though single readings can be large; an effect the other way counts as inactive or inconclusive;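 also: plate controls were neutral wells for no effect and buffer without enzyme for full effect; nearly all actives have a fitted effect of over 40% in size; top concentration of the series not given in the record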
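Cruzain (1.5 nM) preincubated 15 min at RT with compound in 100 mM sodium acetate pH 5.5, 5 mM DTT, 0.01% Triton X-100. Reaction started with 2 uM Z-FR-AMC; AMC fluorescence (ex 360/em 450 nm) change over 60 s gave rate.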
* hit, by the source's call; ? = inconclusive; / = not tested or not shown; [ ] = dose if it differs, or a comment. Unless noted, calls follow the shape of the dose curve; as a rule, active means well fitted rising curve with a large enough effect; inconclusive means small, poorly fitted or top-dose-only effect; inactive means no such curve, though single readings can be large or run the other way. Potency is read from the fitted curve at half-maximal effect.

Order of results: Cruzain inh noDet | NS1 inh | Lassa entry inh | RE007 growth inh | 2A StopGo | Marburg entry inh | SARS PLP yeast | Cruzain inh Det
[1] CC(=O)c1ccc(N2CCN(C(=O)CCC(=O)Nc3ccc4nc(N5CCN(C)CC5)cc(C)c4c3)CC2)cc1
    / | 1% | 11%[46.1 µM] | -27% | 1% | ? | 0% | /
[2] CCN(CC(=O)Nc1ccccc1OC)C(=O)C1CC2C=CC1C2 (stereo not given)
    -4% | -4% | 7% | 7% | 6% | 12% | / | 3.6%
[3] Cc1nnsc1SCCNC(=O)c1c(F)cccc1F
    1% | -3% | -3% | 8% | -10% | 4% | 1% | -1.4%
[4] Cc1cc(S(=O)(=O)NCc2ccncc2)c(C)cc1Br
    / | -1% | ? | -7% | -3% | ? | 1% | /
[5] Cc1ncc([N+](=O)[O-])n1CC(=O)NC(C)(C)C
    -3% | 1% | ? | 0% | 6% | ? | 5% | -4.1%
[6] O=C(Nc1nc(N2C(=O)c3ccccc3C2=O)n(-c2ccccc2)n1)c1ccc(Cl)cc1
    -1% | 18% | 2% | -11% | -7% | -4% | -2% | 6.7%
[7] O=C(N/N=C/c1ccco1)c1cc(-c2cccs2)[nH]n1
    -5% | 9% | / | 14% | 22% | / | 7% | -5.5%
[8] COc1ccc(-c2noc(CCC(=O)N(C)c3ccccc3C)n2)cc1
    1% | / | ? | / | ? | -3%[46.1 µM] | / | -2.9%
[9] CSc1cccc(NC(=O)C2CCCN(c3ncnc4c3nc3n4CCCCC3)C2)c1 (stereo not given)
    / | 1% | / | 8% | ? | / | -6% | /
[10] Cc1ccc(C2N(c3cccc(Cl)c3)C(=O)C3CCCN32)o1 (stereo not given)
    1% | -10% | / | -5% | ? | / | -3% | 4.4%
[11] CCCCc1ccc(NC(=O)CN(C)CC(=O)Nc2ccccc2Cl)cc1
    / | 4% | -20%[46.1 µM] | 0% | -3% | ? | -9% | /
[12] Cc1ccc(Nc2nc(N3CCOCC3)nc(N3CCOCC3)n2)cc1
    4% | -29% | -37% | -1% | -1% | 1.2µM* | -4% | 1.6%
[13] Cc1c(CC(=O)NCCCCCC(=O)O)c(=O)oc2cc3occ(-c4ccccc4)c3cc12
    / | 11% | -10%[46.1 µM] | 5% | -5% | 16%[46.1 µM] | 0% | /
[14] Fc1ccc(-c2[nH]ncc2-c2nnnn2-c2ccccc2)c(F)c1
    0% | 27% | -15% | 6% | -10% | -6% | -1% | 6.4%
[15] COc1ccc(-c2nn(-c3ccccc3)cc2CO)cc1OC
    1% | -8% | -2% | -10% | ? | 0% | 0% | -7.1%
[16] COc1cc(NS(=O)(=O)c2cc(Br)cc3c2N(C(=O)C2CC2)CC3)cc(OC)c1
    6% | / | 3.5µM* | / | -92% | / | / | -3.6%
[17] COc1ccc(C(=O)NCC(c2cccs2)N2CCc3ccccc32)c(OC)c1 (stereo not given)
    / | / | ? | -13% | ? | -22% | 0% | /
[18] O=C(COC(=O)c1cccnc1)Nc1ccccc1
    -7% | 11% | 6% | 1% | -11% | 0% | -5% | 0.8%
[19] CCc1ccccc1N(C(=O)c1snc(C(N)=O)c1N)C(C(=O)NCC1CCCO1)c1ccc(OC)c(OC)c1 (stereo not given)
    / | 1% | ? | -11% | -4% | ? | 4% | /
[20] CC(C)(C)OC(=O)N1CCCC1C(=O)N1CCc2ccccc21 (stereo not given)
    3% | -3% | -1% | 13% | 11% | -7% | -14% | 1.9%
[21] O=C1NC(=O)N(c2ccccc2)C(=O)/C1=C/c1coc2ccc(O)cc2c1=O
    / | -5% | / | 23% | ? | / | 0% | /
[22] Cc1ccc(N2C(=O)NC(NC(=O)C(C)(C)C)(C(F)(F)F)C2=O)cc1C (stereo not given)
    -5% | -1% | -6% | 6% | -11% | -7% | 8% | -2.1%
[23] COc1ccc(/C=N/NC(=O)CNC(=O)c2ccc3c(c2)OCCO3)c(C(=O)O)c1OC
    / | 0% | / | -3% | -7% | / | 1% | /
[24] Cc1ccccc1N=C(NO)c1cccnc1
    / | 3% | / | 12% | -12% | / | 0% | /
[25] CN1CCc2c(sc(NC(=O)c3ccc(S(=O)(=O)N4CCOCC4)cc3)c2C(N)=O)C1
    -20% | -32% | / | 6% | 14% | -1% | -1% | -13%
[26] O=C1CN(C(=O)COC(=O)c2ccco2)c2ccccc2N1
    / | / | 0% | -16% | -2% | 13% | 2% | /
[27] O=[N+]([O-])c1cccc(-c2nnn(C34CC5CC(CC(C5)C3)C4)n2)c1
    11% | 3% | 16% | -8% | 0% | -1% | 0% | 1.3%
[28] CCc1cccc(NC(=O)C2CCCC2)c1
    -2% | -10%[9.22 µM] | 4% | -9% | 76%[activator] | 7% | -7% | -0.1%
[29] CC(C)Cc1cc(C(=O)N2CCN(c3ccc(F)cc3)CC2)no1
    6% | -8% | / | -3% | -11% | / | -5% | -9.9%
[30] COc1ccc(OC)c(NC2=C(Cl)C(=O)N(Cc3ccccc3)C2=O)c1
    / | -3% | -1% | 8% | -21% | ? | -1% | /
[31] CCCCCn1nc(C)c2c(C)cc(=O)[nH]c21
    -3% | 2%[9.22 µM] | ? | 15% | 0% | 1% | 5% | -2.3%
[32] CC1(C)CC(=O)C=C(NCCN2CCN(C(=S)NC3CCCCC3)CC2)C1
    / | -4% | 20%[46.1 µM] | 4% | 5% | 2%[46.1 µM] | 1% | /
[33] C/C(=N\OC(=O)c1c(-c2ccccc2Cl)noc1C)c1ccncc1
    / | 4% | ? | -1% | ? | ? | 2% | /
[34] CCOc1ccccc1NC(=O)CCNC(=O)Cn1ccc2ccccc2c1=O
    / | -7% | 0%[46.1 µM] | 4% | 2% | -9%[46.1 µM] | -4% | /
[35] CCCc1nc2ccccc2c(=O)n1CC(=O)c1ccc(OC)cc1
    / | -1% | ? | -15% | -21% | ? | 1% | /
[36] COCCn1c(SCC(=O)NCCc2ccccc2)nc2c([nH]c3ccccc32)c1=O
    / | -7% | -3% | 0% | -8% | -28% | 0% | /
[37] O=C(Nc1nncs1)C12CC3CC(CC(Cl)(C3)C1)C2
    / | 12% | -7% | -10% | -18% | 11% | 1% | /
[38] O=C(COC(=O)c1ccccn1)NNC(=O)c1ccc([N+](=O)[O-])cc1
    / | / | 16% | 1% | -10% | -9%[46.1 µM] | 0% | /
[39] CCOC(=O)Cn1cnc2c(nnn2-c2ccc(OC)cc2)c1=O
    9% | -14% | 17% | 7% | 19% | 7% | -9% | -0.4%
[40] Cc1c(C)c2c(OCC(=O)N[C@@H](CC(C)C)C(=O)O)cc3c(c2oc1=O)CCC(C)(C)O3
    / | 4% | 14%[46.1 µM] | -10% | 47%[activator] | ? | 0% | /
[41] O=C(O)CSc1nnc(CNc2ccccc2Cl)n1-c1ccccc1
    5% | 7% | -1% | -3% | -9% | 6% | 3% | -2.3%
[42] Cn1cc(C(=O)C(=O)N2CCc3ccccc32)c2ccccc21
    / | -4% | / | 1% | 11% | / | -1% | /
[43] CC(NC(=O)CCC(=O)NCc1ccc(F)cc1)c1ccccc1 (stereo not given)
    / | -10% | / | 10% | -1% | / | -5% | /
[44] CCCCOc1ccc(C(=O)NCC(=O)NNC(=O)c2ccco2)cc1
    / | / | -2% | -2% | 6% | 28% | -3% | /
[45] CN(C)c1ccc(C(C(=O)NC2CCCCC2)N(Cc2ccco2)C(=O)c2snc(C(N)=O)c2N)cc1 (stereo not given)
    / | -6% | 13µM* | -10% | -4% | 3.5µM* | -16% | /
[46] COc1ccc(/C=N/Nc2nc3ccccc3[nH]2)c(OC)c1OC
    / | 1% | ? | -7% | ? | ? | -2% | /
[47] CC1CN(C(=O)COC(=O)c2ccc(S(=O)(=O)N(C)C)cc2)CC(C)O1 (stereo not given)
    / | -14% | 15%[46.1 µM] | 24% | -6% | 6%[46.1 µM] | 0% | /
[48] CC1CCN(Cc2c(C(=O)N/N=C/c3cccc(C(F)(F)F)c3)nnn2-c2nonc2N)CC1
    / | -51% | ? | 5% | -28% | -27%[46.1 µM] | 0% | /
[49] Cn1c(=O)[nH]c(=O)c2c1nc(NC1CCCC1)n2Cc1ccccc1
    / | 14% | / | 9% | -21% | / | 3% | /
[50] O=C(CC1S/C(=N/N=C/c2cccs2)NC1=O)Nc1ccccc1F (stereo not given)
    / | / | -1% | 9% | -9% | -30% | 2% | /
[51] CCc1ccc(N(CC(=O)NCc2ccc3c(c2)OCO3)C(=O)c2csnn2)cc1
    / | 11% | 7% | 11% | ? | -23%[46.1 µM] | 20% | /
[52] COC(=O)NC(=S)Nc1ccc(Oc2ccc(Cl)cc2)c(Cl)c1
    -7% | 0% | -8% | -1% | / | -11% | 5% | -6.7%
[53] COc1ccc(S(=O)(=O)N2CCCCCC2)cc1C(=O)Nc1ccc(C(=O)N(C)C)cc1
    / | / | 3% | 8% | 14% | 4% | -4% | /
[54] Cc1cccc(OCC(=O)Nc2ccncc2)c1C
    / | -38% | ? | -16% | -15% | ? | -10% | /
[55] CC(=O)Nc1ccc(S(=O)(=O)Nc2nccc(C)n2)cc1
    / | 5% | / | -10% | 0% | / | -1% | /
[56] CC(Oc1cccc(Cl)c1)c1ccnc2nc(/N=C/N(C)C)nn12 (stereo not given)
    / | -5% | 4% | 34% | 0% | 3%[46.1 µM] | -1% | /
[57] COc1ccc(N2CCN(C(=O)c3ccc(-n4nc(C)cc4C)cc3)CC2)cc1
    6% | -27% | 0% | 0% | -22% | 4% | -4% | -3.2%
[58] COc1cc(/C=N/O)ccc1OCc1ccc([N+](=O)[O-])cc1
    1% | 8% | ? | -7% | -17% | ? | -21% | -3.7%
[59] CC1c2[nH]c3ccccc3c2C[C@H]2C(=O)N(CCCN(C)C)CC(=O)N12 (stereo not given in full)
    / | 2% | -3% | 4% | -8% | ? | -2% | /
[60] CSCCC(NS(=O)(=O)c1ccccc1F)C(=O)NCC(c1ccco1)N(C)C (stereo not given)
    / | / | -2%[46.1 µM] | -5% | -9% | ? | 0% | /

No enrichment for hits; any-hit rate near 4.7%.
